HSD17B inh = blocks hydroxysteroid 17-beta dehydrogenase activity. Q99714. recombinant HSD17B10, NADH fluorescence kinetic; many of its hits are not listed in these tables. Potency, µM (titrated, usually from 57.1 µM), without a hit: at the highest dose activity change, negative = inhibition, hits mostly inhibitors. hit rate 7.6% among 75,000; active = well fitted inhibition curve with a large enough effect; inconclusive = small, poorly fitted or top-dose-only effect; inactive = no such curve, though single readings can be large or run the other way;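 note: the protocol describes HADH2 (HSD17B10) and not the HSD17B4 of the title; nearly all actives have a fitted effect of over 70% in size; most hits overshoot -100% by far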
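Enzyme plus compound, 15 min room temperature; substrate mix added (NAD+ 1 mM, beta-hydroxybutyryl-CoA 90 uM final); plates read kinetically for NADH fluorescence. HADH2 was His-tagged, E. coli-derived, 20 nM.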
Numbers without * were called inactive; ? = inconclusive; & = joins results of further samples; [ ] = dose if it differs, or a comment. % is set by controls: 0 for no effect and ±100 for the full control effect; potency is the fitted concentration of half-maximal effect. These rows are one share of the data (hit frequency here may not be typical).

structure	HSD17B inh
CCOC(=O)c1[nH]c(C)c(/C(O)=C2\C(=O)C(=O)N(CCCN(CC)CC)C2c2cccnc2)c1C (stereo unspecified)	8.3%
O=C(c1ccc(Cl)c(Cl)c1)N(Cc1ccco1)c1ccc(O)cc1	-9.0%
COc1ccc2c(c1)c(CC(=O)O)c(C)n2Cc1ccc(F)cc1	-8.7%
Cc1c(C)c2cc3c4c(oc3c(C)c2oc1=O)CCCC4	-7.6%
CCCCCN=C(N)N/N=C/c1c[nH]c2ccc(OC)cc12	3.1%&-3.8%
O=C(/C=N/O)NCc1ccncc1	5.7%
CCOc1ccc(S(=O)(=O)N(CC(=O)N2CCc3ccccc32)Cc2ccco2)cc1	-3.3%
CCCOc1ccc(C(=O)N2CCN(c3ccc(N)cc3Cl)CC2)cc1	7.6%
CCCNC(=O)N1CCN(S(=O)(=O)c2ccc(C)c(C)c2)CC1	4.0%
Cc1ccc(S(=O)(=O)Nc2nc3ccccc3nc2NCc2ccco2)cc1C	31.6µM*
O=C(CCCCn1c(=O)[nH]c2ccccc2c1=O)NCc1ccc2c(c1)OCO2	-18.5%
OCc1nc2ccccc2n1C/C=C/c1ccccc1	8.9%
C[N+](C)(C)CCCCCCCCCC[N+](C)(C)C	8.3%[25.6 µM]
COC(=O)c1ccccc1NC(=O)c1ccc2c(c1)OCCO2	-11.6%
Cc1cc(=O)oc(C)c1C(=O)N1CCN(C(c2ccccc2)c2ccccc2)CC1	-1.7%
CCOC(=O)c1sc(=S)n(C)c1N	-4.3%
COc1ccc(C(=O)O)cc1Nc1cc(C)nc2ncnn12	11.2%
COc1ccccc1N1CCN(Cc2nc(N)nc(Nc3ccc(C)cc3)n2)CC1	9.3%
O=S(=O)(Nc1cccnc1)c1cc(Cl)ccc1Cl	2.9%
Cc1cc(C)cc(-n2nnc(C(=O)NCc3ccco3)c2N)c1	-1.6%
CS(=O)(=O)N1CCC(C(=O)N2CCC(Cc3ccccc3)CC2)CC1	8.8%
COc1cc(Cl)c(S(=O)(=O)N2CC(C)OC(C)C2)cc1Cl (stereo unspecified)	0.0%
CC12CCCC(O)(C1)C1CC(C)(C)C1CC2 (stereo unspecified)	-4.7%
CCCCC1(CC)C(=O)NC(=O)NC1=Nc1ccc(OC)cc1 (stereo unspecified)	0.0%
COc1ccc(-n2c(=O)cc(N3CCCCCC3)[nH]c2=O)cc1	-1.7%
COc1ccc(C(CC(=O)O)NC(=O)COc2ccccc2)cc1OC (stereo unspecified)	-4.4%
O=C(Cc1ccc(-n2cccc2)cc1)N1CCN(c2ccccc2F)CC1	-4.6%
CCCn1c(SCC(=O)Nc2cccc(C(=O)OC)c2)nnc1-c1cccnc1	-7.8%
CCOC(=O)c1c(-c2cccs2)csc1NC(=O)COC(=O)c1c(C)noc1C	?
Cc1cc(Nc2ccc(C(=O)O)cc2)n2nc(C)nc2n1	-5.4%
CC1CCC2C(C1)c1sc(=O)[nH]c1SC2(C)C (stereo unspecified)	-15.6%
O=C(NC1(C(F)(F)F)NC(=O)N(CC2CCCCC2)C1=O)c1ccco1 (stereo unspecified)	8.1%
O=C(COC(=O)CCCN1C(=O)c2ccccc2C1=O)Nc1ncc(Cl)cc1Cl	-18.0%
CN1C(=O)CC(N2CCN(c3ccccn3)CC2)C1=O (stereo unspecified)	-0.2%
Cn1ccnc1SCC(=O)c1ccc(Br)cc1	?
O=C(CCBr)N1CCN(C(=O)CCBr)CC1	?
Cc1nc(CNS(=O)(=O)c2ccc3c(c2)OCCO3)cs1	13.7%
Cn1c(=O)oc2cc(S(=O)(=O)NCCN3CCN(c4ccccc4F)CC3)ccc21	1.9%
O=P(O)(OCc1ccccc1)OCc1ccccc1	-3.7%
Cc1cc(NC(=O)CSc2c3c(nc4ccccc24)CCC3)no1	1.5%
NS(=O)(=O)c1ccc(CCNC(=O)COC(=O)C2CCCN2C(=O)c2cccs2)cc1 (stereo unspecified)	3.5%
c1ccc2c(c1)OCC(c1nnc3sc(-c4ccc5c(c4)OCO5)nn13)O2 (stereo unspecified)	25.1µM*
c1ccc(-c2cccc(N3CCC4(CCNCC4)CC3)c2)cc1	?
CCC(C)N1CC(C(=O)NC2CCCCC2)CC1=O (stereo unspecified)	9.0%
Cc1ccc(CC(=O)Nc2cccc(C)n2)cc1	-4.8%
CCOC(=O)C1CCN(C(c2cccc(OC)c2)c2sc3nc(C)nn3c2O)CC1 (stereo unspecified)	4.5%
CCOc1ccccc1N1Cc2cc(C)c(C)cc2C1	-23.8%
Cc1ccc(S(=O)(=O)N2Cc3ccccc3CC2C(=O)Nc2cc(C)on2)cc1 (stereo unspecified)	-9.9%
CCN(CC(=O)NC1CCS(=O)(=O)C1)C(=O)COc1ccccc1-c1ccccc1 (stereo unspecified)	12.5%
c1coc(Cn2c(-c3ccco3)nc3ccccc32)c1	20µM*
COc1ccc(C(=O)CSc2nnnn2Cc2ccccc2)cc1	-1.7%
CCC(C)N(C)Cc1cccc(C2(O)CCN(S(=O)(=O)c3ccc(F)cc3)CC2)c1 (stereo unspecified)	-4.1%
Cc1cc(C)c(S(=O)(=O)n2nc(C)c(Br)c2C)c(C)c1	8.0%
CCOC(=O)C1CCN(C(=O)CN(c2ccc(OC)cc2)S(=O)(=O)c2c(C)noc2C)CC1	4.4%
CCOC(=O)Cn1c2c(c(-c3ccccc3OC)cc1=O)CCCC2	-13.0%
CCCCCc1nc2c(=O)n(C)c3ccccc3c2o1	-11.8%
O=C(Nc1ccc(F)c(Cl)c1)c1ccc2c(=O)n3c(nc2c1)CCCCC3	4.5%
O=S(=O)(NCC(c1cccnc1)N1CCOCC1)c1cccs1 (stereo unspecified)	-1.1%
O=C(O)CCn1c(-c2ccccc2)cc2c1CCCC2=O	-6.0%
CCOCCCNC(=O)c1c(C)c(C(=O)OCC)n(C)c1C	13.6%

Remaining list, next part:
SMILES | HSD17B inh
CCc1ccc(NS(=O)(=O)c2ccc3[nH]cc(C(=O)NCC4CCCO4)c(=O)c3c2)cc1 (stereo unspecified) | ?
CCC(=O)c1ccc(OCC(O)Cn2c(C)nc3ccccc32)cc1 (stereo unspecified) | -2.0%
Cc1ccc(S(=O)(=O)N2CCCC(C(=O)NCCc3ccc4c(c3)OCO4)C2)cc1 (stereo unspecified) | -3.8%
O=C(/C=C/c1ccccc1)c1ccc(O[C@H]2OC(CO)C(O)C(O)C2O)cc1O (stereo partly specified) | 5.2%
CC[N+](CC)(CC)CCOc1ccc(/C=C\c2ccccc2)cc1 | 31.6µM*
O=C(CCN1CCN(c2ccc(F)cc2)CC1)Nc1ccccc1F | -7.1%
O=C1CC(N2CCN(c3ccc(F)cc3)CC2)C(=O)N1Cc1ccc(N2CCCC2=O)cc1 (stereo unspecified) | -4.7%
O=C(COc1ccccc1F)c1ccc(O)cc1O | -2.7%
c1ccc(-n2c(-c3ccncc3)nnc2N2CCOCC2)cc1 | 6.3%
CN(CCc1ccccn1)c1ccc2c(c1)C(=O)c1ccccc1-2 | 3.7%[11.4 µM]
Cn1c(Cc2ccccc2)nnc1SCCC(=O)Nc1ccccc1 | ?
CCOC(=O)N1CCN(C(=O)CS(=O)Cc2nc(-c3cccc(C)c3)oc2C)CC1 (stereo unspecified) | 3.6%
CCCn1c(-c2ccc(F)cc2)nc2c(NCCCN3CCCCC3C)nc(C)nc21 (stereo unspecified) | 31.6µM*
O=c1[nH]c2ccccc2n1CCCOc1ccccc1 | 1.3%
COc1cccc(CNCCOCCO)c1OC | -24.4%
CC1(C)SC2C(NC(=O)C(NC(=O)N3CCNC3=O)c3ccccc3)C(=O)N2C1C(=O)O (stereo unspecified) | 3.0%
COC(=O)c1cc(-c2ccc3ccccc3c2)[nH]c(=O)c1C#N | 3.98µM*
O=C1CC(c2ccccc2)CC(O)=C1C=NCCN1CCOCC1 (stereo unspecified) | 8.1%
COc1ccc(-c2nnc(CSc3nc4ccccc4c(=O)n3CC(C)C)o2)cc1OC | -4.4%
Cc1cc(N2CCN(c3cccc(C(F)(F)F)c3)CC2)n2nc(C)nc2n1 | ?

Part of the list above, reformatted:
COc1cccc(CNCCOCCO)c1OC
  HSD17B inh: -24.4%

CC1(C)SC2C(NC(=O)C(NC(=O)N3CCNC3=O)c3ccccc3)C(=O)N2C1C(=O)O (stereo unspecified)
  HSD17B inh: 3.0%

(further entries)
SMILES | HSD17B inh
Cc1ccc2cccc(NC(=O)C(F)(F)F)c2n1 | 3.3%
COc1ccccc1-c1cncnc1NCc1ccccc1 | -5.9%
CC(C)c1ccccc1NC(=O)c1cnccn1 | 8.3%
CCOC(=O)N1CCC2(O)CCCCC2C1c1ccc(F)cc1 (stereo unspecified) | 0.9%
O=S(=O)(Nc1nc2ccccc2nc1NCc1ccco1)c1ccc(Cl)cc1 | ?
c1ccc2c(c1)CCC[C@H]2C1=NCCN1 | 7.5%
COc1ccccc1N1CCN(S(=O)(=O)c2ccc3c4c(cccc24)C(=O)N3)CC1 | 10.6%
Cn1c(C(=O)N2CCN(C3CCCCC3)CC2)cc2c(=O)n(C)c3ccccc3c21 | 3.4%
CC(C)CCSc1nnc(Cn2c(=O)sc3ccccc32)n1C | 12.4%
CCOC(=O)CNC(=O)CSc1nnc(-c2cccc(OC)c2)n1CC | -1.5%
C=CCN1C(c2ccc(OCC)cc2)=CS/C1=C(\C#N)c1nnc2n1CCCCC2 | -7.2%
c1ccc(CSc2nnnn2-c2ccc3c(c2)OCCO3)nc1 | -0.4%
CC(O)c1cc2c(cc1NC(=O)c1cnn3c1NC(c1ccco1)CC3C(F)(F)F)OCO2 (stereo unspecified) | -7.1%
O=C(Cn1ccc2ccccc2c1=O)N1CCN(c2cccc(Cl)c2)CC1 | -18.1%
CC1(C)OC(=O)C(=CNc2ccc(F)cc2)C(=O)O1 | 10.1%
CC(NC(=O)C1C(=O)N(CCO)C2(C)CC1c1ccccc1O2)c1ccccc1 (stereo unspecified) | 2.7%
COc1ccc(S(=O)(=O)Nc2ccccn2)cc1OC | 10.5%
O=C(COc1ccc2ccc(=O)oc2c1)Nc1ccc2c(c1)OCCO2 | 31.6µM*
CC(=O)Nc1ccc(S(=O)(=O)N2CCC(NC(=O)c3ccco3)CC2)cc1 | 3.6%
COc1ccc(C(=O)Nc2ccccc2C(=O)NCCN2CCOCC2)cc1 | 4.0%

An excerpt from above in order of SMILES length, highest first.
SMILES | HSD17B inh
Cc1ccc(S(=O)(=O)N2Cc3ccccc3CC2C(=O)Nc2cc(C)on2)cc1 (stereo unspecified) | -9.9%
Cc1cc(NC(=O)CSc2c3c(nc4ccccc24)CCC3)no1 | 1.5%
Cn1c(Cc2ccccc2)nnc1SCCC(=O)Nc1ccccc1 | ?
O=C(O)CCn1c(-c2ccccc2)cc2c1CCCC2=O | -6.0%

Other results follow.
SMILES | HSD17B inh
Cc1cc(C)n(CCc2nc(-c3cccs3)cs2)n1 | -9.1%
COC(=O)Cn1c(CN2CCc3ccccc3C2)nc2c1c(=O)n(C)c(=O)n2C | 5.6%
CCC1(C(=O)O)NC(c2cccc(OC)c2O)C2C(=O)N(c3ccccc3)C(=O)C21 (stereo unspecified) | 1.2%
NC(N)=N/N=C(/c1ccccc1)c1ccc(O)cc1O | 4.2%[11.4 µM]
COc1ccc(-c2nnc3ccc(SCC(=O)N4CCN(c5ccccc5)CC4)nn23)cc1OC | -3.1%
OC(COc1ccc(C2C=CCC2)cc1)CN1CCCCC1 (stereo unspecified) | 5.5%
CCCNC(=O)OC[C@H]1O[C@@H](CCO/N=C2/C[C@@H](O)[C@@H](O)[C@@H]3[C@@H]4C(=O)N(CC)C(=O)[C@H]4CC[C@@H]23)C=C[C@@H]1Oc1ccc(OC)cc1 | 1.6%[11.4 µM]
CC1CCCCC1NC(=O)CCS(=O)(=O)c1cccc2nonc12 (stereo unspecified) | -8.2%
C1CCN(c2nc3nonc3nc2N2CCCC2)C1 | -3.1%
COc1ccc(OC)c(S(=O)(=O)N2CCC(C(=O)NCc3ccccc3)CC2)c1 | 1.3%
CCCS(=O)(=O)N1CCN(C(=O)CCC2CCCC2)CC1 | 6.4%
Cc1cc(C)c2c(=O)[nH]n(C(C)C)c2n1 | 7.2%
Cc1cc(=O)[nH]c(SCC(=O)N2CCN(C(c3ccccc3)c3ccccc3)CC2)n1 | 6.3%
O=S(=O)(NCC(O)COCc1ccco1)c1cccs1 (stereo unspecified) | ?
CC(C)(C)c1ccc(Cn2nnc3c(=O)[nH]c(C4CCN(C(=O)Cc5cccs5)CC4)nc32)cc1 | ?
CCn1c(SCc2nc3ccccc3[nH]2)nnc1-c1cnccn1 | 7.0%
CO[C@H]1COC(=O)[C@@H](OCc2ccccc2)/C=C\[C@H](C)[C@@H](OC)COC(=O)[C@H](OCc2ccccc2)/C=C\[C@@H]1C | -1.0%[11.4 µM]
O=C(c1ccc2c(c1)OCCO2)C1CCN(S(=O)(=O)c2ccccc2F)CC1 | 13.3%
C=C(C)COc1ccc(-c2nc(N)ncc2Oc2ccc(OC)cc2)c(O)c1 | -12.7%
Cc1cc(S(=O)(=O)N2CC(=O)N(CCc3ccccc3)C(=O)C2)ccc1F | 13.8%
O=C(NCCCN1CCCC1)Nc1cccc2ccccc12 | 31.6µM*
Cc1c(C(=O)NCc2ccccn2)sc2nc(-c3ccccc3)cn12 | 8.8%
CCOc1ccc(-n2cnnn2)cc1S(=O)(=O)Nc1c(C)cccc1C | 10.6%
COc1ccc(OC)c(C(=O)c2nc3c(n2O)CCCCC3)c1 | -3.9%
Cn1c(SCC(=O)Nc2ccc3c(c2)OCCO3)nnc1-c1ccccn1 | 1.0%
CC(=O)OC[C@@H]1O[C@H](C/C=N\O[C@@H](C)c2cn([C@H]3COC[C@H]3O)nn2)C=C[C@@H]1OC(C)=O | 2.6%[11.4 µM]
O=c1c2c(n3nnnc3n1-c1ccccc1)-c1ccccc1CC21CCCC1 | 8.8%
Cc1ccc2c(c1)N(CC(=O)OC(CC(C)C)C(=O)NC1CCCC1)C(=O)CO2 (stereo unspecified) | 0.6%
